rRNA inh HTS: reduced GFP signal of wild-type E. coli, primary screen, bacterial rRNA inhibitor project, GFP/RFP fluorescence, OD600, single point. E. coli WT GFP vs humanized-ribosome RFP mutants, 24 h; active compounds read low; DMSO median 0, no signal -100. 350,000 tested, 1.6% active. GFP signal change (wild-type ribosome), % (concentration not given with the values);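 active = significant combined selectivity score with lowered wild-type GFP, culture density cut under 30%, mutant RFP and density less affected; inactive = any of these conditions unmet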; note: one replicate is shown; some compounds called inactive have numbers as strong as hits
Beta cell apopt: inhibitors of cytokine-induced beta cell apoptosis, primary screen, luminescence | AID 435005, 2010 | protection from apoptosis, % (no concentration beside the values) | 300,000 tested, 0.8% active | INS-1E cytokine-induced death, ATP luminescence, 48 h; percent of positive-control rescue, neutral wells zero;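 active = all replicates at 75% or more, or half of them and the mean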;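 note: 0% = cytokine-treated negative control wells and 100% = positive control rescue; higher means more ATP so stronger rescue from cytokine killing; wells of about 40 µL received 100 nL stock; the first replicate is given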
Ecoli growth: E. coli growth inhibition, primary screen, OD600; Escherichia coli growth, 23 h; active compounds read low; 330,000 tested, 0.21% active; OD600 absorbance (concentration not given with the values);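 active = OD600 absorbance below the run mean of sample wells minus 3.6 SD, in any replicate, cut at about 0.56 in these data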;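 note: stock transfer was 300 nL into about 60 µL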
FGF22 binding: binders of human FGF22 protein, primary screen, FGF22 synaptogenesis inhibitor project, biophysical, thermal shift, single point. AID 651658, 2012. recombinant FGF22 thermal shift, SYPRO orange fluorescence; percent of sucrose octasulfate shift, DMSO zero. 340,000 tested, 1.5% active. calls only at 9.99 µM. Fibroblast growth factor 22 (Homo sapiens), Q9HCT0;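 active = melting point raised past a set limit in the mean and every replicate; three in four hits are not shown here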
Target sequence (Q9HCT0 whole entry, looked up): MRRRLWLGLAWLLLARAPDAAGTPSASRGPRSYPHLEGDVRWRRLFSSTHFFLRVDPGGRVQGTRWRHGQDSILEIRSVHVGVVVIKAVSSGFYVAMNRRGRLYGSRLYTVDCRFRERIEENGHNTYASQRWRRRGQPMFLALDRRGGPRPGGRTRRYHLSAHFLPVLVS
T cruzi repl: inhibitors of intracellular T. cruzi growth, primary screen, luminescence, NIH3T3 host cells | T. cruzi beta-gal in NIH3T3, 90 h | inhibition, % (concentration not given with the values) | 300,000 tested, 1.4% active | AID 1885, 2009;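 active = mean inhibition across valid replicates above about 55%, limit read from the data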;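 note: signal also drops with host cell toxicity which is not excluded here; 0% = plate median of DMSO wells and 100% = zero luminescence signal; higher percent means less beta-gal luminescence so fewer parasites; stock transfer was 50 nL into about 50 µL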
UCH37 inh: inhibitors of human UCH37 deubiquitinase, primary screen, biochemical, Ub-AMC cleavage, fluorescence | Ubiquitin carboxyl-terminal hydrolase isozyme L5 (Homo sapiens), Q9Y5K5 | purified proteasome/UCH37 | inhibition, % (no concentration beside the values) | 330,000 tested, 0.33% active;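 active = mean of two replicates above 20%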;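 note: 0% = compound-free wells with enzyme and 100% = wells lacking proteasome; stock transfer was 100 nL into about 20 µL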
Target sequence (Q9Y5K5 whole entry, looked up): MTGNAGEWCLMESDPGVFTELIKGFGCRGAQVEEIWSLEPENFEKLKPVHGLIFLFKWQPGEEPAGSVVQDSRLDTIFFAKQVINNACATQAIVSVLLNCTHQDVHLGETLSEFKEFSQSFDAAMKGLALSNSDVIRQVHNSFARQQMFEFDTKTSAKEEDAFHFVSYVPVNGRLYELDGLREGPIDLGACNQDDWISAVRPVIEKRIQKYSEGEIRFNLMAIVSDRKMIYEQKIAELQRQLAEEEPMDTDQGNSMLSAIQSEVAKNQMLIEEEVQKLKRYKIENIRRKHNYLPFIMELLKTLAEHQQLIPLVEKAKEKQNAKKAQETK
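Schedule: 30 min plus 25 min, room temperature / Material: human UCH37 within purified proteasomes / Technique: AMC fluorescence intensity at 355/460 nm / Buffer or medium: pH 7.4 Tris-HCl (50 mM) with ovalbumin, ATP-MgCl2, DTT / Controls: wells without proteasome as full block, compound-free enzyme plus substrate as uninhibited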
A1 inh: caspase 3/7 activation in MEF A1-2A-BIM cells, primary screen, A1 inhibitor project, cell-based, luminescence, HTS; Caspase-Glo 3/7 luminescence, 3 h; percent of clofoctol response, vehicle zero; caspase activation, % (test concentration not listed); 330,000 tested, 0.066% active; AID 2462, 2010;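 active = over half of replicate activation scores above 10%, or exactly half above 10 with the replicate mean above 10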;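 note: wells of about 30 µL received 50 nL stock; many hits fall short of the cut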
AF4-AF9 inh: inhibitors of AF4 peptide binding to AF9, primary screen, biochemical, AlphaScreen, biotin-AF4 peptide, FLAG-AF9, single point | Protein AF-9 (Homo sapiens), P42568 | inhibition, % at 10 µM | 350,000 tested, 0.47% active;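 active = every replicate reaching a set inhibition limit, whatever the replicate mean, cut at about 25% in these data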;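 note: 0% = plate neutral control median and 100% = total signal loss; the record names both 10 and 1 µM as test concentration; the first replicate is given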
Target sequence (P42568 whole entry, looked up): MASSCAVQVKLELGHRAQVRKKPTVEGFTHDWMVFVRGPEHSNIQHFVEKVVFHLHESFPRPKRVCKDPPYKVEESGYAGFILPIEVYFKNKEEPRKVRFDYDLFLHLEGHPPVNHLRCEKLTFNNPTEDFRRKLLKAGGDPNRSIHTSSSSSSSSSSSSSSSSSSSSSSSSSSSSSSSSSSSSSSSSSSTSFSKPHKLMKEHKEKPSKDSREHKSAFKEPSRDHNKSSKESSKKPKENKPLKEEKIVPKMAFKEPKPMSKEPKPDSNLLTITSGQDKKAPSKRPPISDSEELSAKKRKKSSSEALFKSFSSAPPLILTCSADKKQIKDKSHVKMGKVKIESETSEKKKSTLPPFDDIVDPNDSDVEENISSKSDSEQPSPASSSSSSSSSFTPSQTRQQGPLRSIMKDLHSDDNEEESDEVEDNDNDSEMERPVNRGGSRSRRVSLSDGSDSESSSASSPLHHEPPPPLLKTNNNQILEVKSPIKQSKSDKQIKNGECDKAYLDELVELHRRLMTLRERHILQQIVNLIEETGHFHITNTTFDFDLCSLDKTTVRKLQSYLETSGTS
rRNA inh HTS OD600: also measured in rRNA inh HTS; calls as there; OD600 change, %; measured here: OD600 growth;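 optical density of the mix in the first replicate; 0 = DMSO median and -100 = no signal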
rRNA inh HTS RFP: also measured in rRNA inh HTS; calls as there; RFP signal change, %; measured here: RFP humanized mutant strains;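 first replicate; 0 = DMSO median and -100 = no signal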
An asterisk follows results filed as active; i = inactive; x = not tested or not shown. A portion of the library, so the mix of outcomes need not match the whole.

SMILES	rRNA inh HTS	rRNA inh HTS OD600	rRNA inh HTS RFP	Beta cell apopt	Ecoli growth	FGF22 binding	T cruzi repl	UCH37 inh	A1 inh	AF4-AF9 inh
COCCNc1cc(NCCOC)c([N+](=O)[O-])cc1[N+](=O)[O-]	11.8	6.5	2.1	-4.5	0.696	i	-8.5	8.9	-0.6	0.7
Cc1cc(NC(=O)CSc2nc(C(C)(C)C)nc3ccccc23)no1	25.0	19.0	5.6	1.5	0.654	i	-11.0	3.3	0.2	-2.4
Cc1cccc(N2C(=O)CC(n3ccnc3)C2=O)c1C (centres undefined)	13.6	3.2	-3.3	-6.9	0.64	i	-6.0	3.1	0.5	-5.6
CC1CN(c2ccc([N+](=O)[O-])cc2F)CCN1C(=O)c1ccco1 (centres undefined)	-4.7	-0.4	2.9	-5.0	0.708	i	-7.6	10.8	0.9	4.5
CC1(C)OC(=O)C(=CNc2ncccn2)C(=O)O1	18.5	8.6	0.1	-9.7	0.688	i	-18.2	1.3	0.2	-18.9
COn1c(SCc2ccccc2)nc2ccccc2c1=O	x	x	x	-0.3	0.714	x	3.1	2.6	-1.0	x
Cc1ccc(NC(=O)C2CCN(S(=O)(=O)c3ccccc3)CC2)cc1	-6.8	-9.0	0.1	0.4	0.734	i	15.2	5.5	0.9	-0.1
CCOc1cc(C2NC(=O)NC(C)=C2C(=O)OC(C)CC)cc(Br)c1O (centres undefined)	x	x	x	1.9	0.703	x	-6.3	2.4	-0.8	x
CC(=O)N1CCc2cc(C(=O)CN3CCN(c4ccccc4F)CC3)ccc21	-3.3	-1.1	-3.3	1.4	x	i	0.8	2.5	0.1	8.5
COc1cc(NC(=S)N2CCN(S(C)(=O)=O)CC2)cc(OC)c1	10.4	9.5	2.5	-4.2	0.687	i	x	4.0	-0.2	-1.7
COc1cc(/C=N\NC(=O)c2ccc(C)nc2)ccc1OC(=O)c1ccco1	1.0	3.1	-1.9	5.7	x	i	2.9	x	0.4	-4.3
COc1ccccc1NC(=O)CCCN1C(=O)C2CC=CCC2C1=O (centres undefined)	3.5	5.1	3.1	-0.8	0.685	i	6.8	-0.3	0.0	-2.6
Cc1cc(NC(=O)CSc2nc(-c3ccco3)cc(C(F)(F)F)n2)n(-c2ccccc2)n1	x	x	x	5.9	0.731	x	-19.3	3.1	-0.5	x
COc1ccc(CCNC(=O)CNC(=O)c2ccco2)cc1	2.9	11.3	1.4	-5.1	0.669	i	-5.1	3.8	0.0	-1.6
O=C(c1ccco1)N1CCN(c2c([N+](=O)[O-])nn(-c3ccc(Cl)cc3)[n+]2[O-])CC1	-25.9	-36.9	-17.1	2.2	0.651	i	50.1	3.9	-0.2	-0.3
CCOC(=O)/C=C1\Nc2ccccc2SC1=O	x	x	x	1.0	0.747	x	5.0	3.9	-0.6	x
COCCN=C1NN=C(c2cc(C)n(CC3CCCO3)c2C)CS1 (centres undefined)	0.4	6.2	-7.1	0.5	0.708	i	6.7	2.8	0.3	-0.7
COc1ccc(CC(=O)NNC(=O)COc2ccc(Cl)cc2C)cc1S(=O)(=O)N1CCOCC1	x	x	x	2.8	0.626	i	x	0.4	0.2	2.8
S=C(NCc1ccc(Cl)cc1)NN1CCOCC1	16.6	19.0	3.8	-5.1	0.66	i	-3.1	2.2	0.1	1.3
CCOC(=O)c1sc(NC(=S)NC(=O)c2cccc(Cl)c2)c(C(=O)OCC)c1C	x	x	x	0.7	0.758	x	14.0	2.4	0.8	x
O=C1N(c2ccccc2C(F)(F)F)O[C@@]1(c1ccccc1)C1CCCCC1	9.8	7.0	-1.4	-8.6	x	i	x	3.2	0.3	-9.4
Cc1c(C=O)c(=O)n(-c2ccccc2)n1C	9.5	13.1	0.1	-4.2	0.716	i	3.1	1.8	-0.1	-4.1
Cc1ccc2[nH]c3c(NCCCN4CCCC4=O)ncnc3c2c1	x	x	x	-3.3	0.659	x	5.6	-18.4	0.3	x
C=CCN1CCN(C(c2cc(OC)ccc2OC)c2nnnn2CC2CCCO2)CC1 (centres undefined)	x	x	x	-1.8	0.771	x	1.3	0.9	1.0	x
O=c1[nH]c(=O)n(CCc2ccc(F)cc2)c(O)c1C=NCc1ccc2c(c1)OCO2	x	x	x	-3.2	0.725	x	-16.2	3.5	x	x
O=C(CCn1c(=S)[nH]c2ccccc2c1=O)N1CCOCC1	-1.8	5.7	-4.0	0.1	0.75	i	-14.1	4.5	-0.2	6.2
CC(=O)OCC(=O)C1(O)CCC2C3CCC4=CC(=O)C=CC4(C)C3C(=O)CC21C (centres undefined)	-2.6	-0.7	-0.1	x	0.626	i	x	-0.4	x	-1.2
O=C1CN2C(=N1)N(Cc1ccccc1)c1ccccc12	x	x	x	1.8	0.696	x	-10.9	-0.7	-1.7	x
Cc1cc(C(=O)Nc2nc(-c3ccccn3)cs2)ccc1[N+](=O)[O-]	-29.2*	-23.4*	-4.6*	2.8	0.692	i	80.3*	7.2	0.3	-0.3
O=C(C[n+]1cnn(CC(=O)c2ccc(Cl)cc2Cl)c1)c1ccc([N+](=O)[O-])cc1	9.2	19.3	-5.5	6.6	0.618	i	7.3	3.0	0.5	11.6
Cc1ccc(C(=O)N/C(=C\c2ccco2)C(=O)NCCN2CCOCC2)cc1	3.4	8.8	-2.5	4.0	0.653	i	0.7	6.5	-0.7	-10.4
O=C(Nc1cccc(S(=O)(=O)N2CCOCC2)c1)C(c1ccccc1)N1CCCCC1 (centres undefined)	-2.7	-1.9	-2.5	4.1	0.638	i	-3.6	3.0	-3.0	2.4
CC(=O)c1ccc(NC(=O)C(C)OC(=O)/C=C/c2ccco2)cc1 (centres undefined)	x	x	x	-1.4	0.672	i	x	6.2	-0.8	-1.6
O=C(c1cc(=O)[nH]c2ccccc12)N1CC=C(c2ccccc2)CC1	2.1	-1.5	0.5	1.5	0.655	i	-5.3	-13.7	-0.2	-1.9
Cc1cc(C)n(-c2nc3ccccc3nc2N2CCCCCC2)n1	x	x	x	x	0.73	x	12.0	2.6	0.0	x
CC1CC(C)CN(CCOc2cccc3ccccc23)C1 (centres undefined)	-3.3	-8.5	-4.4	-3.3	0.657	i	34.8	2.2	0.6	-2.7
O=C(Nc1ccc2oc(-c3ccccc3F)nc2c1)c1cncc(Br)c1	x	x	x	4.3	0.705	x	-3.7	-7.2	-0.4	x
COc1ccc(OC)c(NC(=O)CSC2=NN3CCCC(=O)N=C3S2)c1	0.4	0.6	-2.9	5.2	0.697	i	-12.7	0.3	0.2	-5.3
N#C/C(=N\O)c1nc2ccccc2s1	-3.3	1.4	9.0	-3.9	x	i	-0.6	x	-1.5	-0.8
CC(NC(=O)COC(=O)COc1cccc2c1OC(C)(C)C2)c1ccccc1 (centres undefined)	3.8	-1.7	-1.2	x	0.692	i	-8.4	3.7	-0.5	-1.6
CSc1ncccc1C(=O)Nc1ccc(S(=O)(=O)Nc2nccs2)cc1	x	x	x	1.2	0.721	x	-12.8	5.7	0.9	x
COc1c2c(nc3occc13)C(CCC(C)(C)O)(OC)C(O)CC2 (centres undefined)	x	x	x	-1.0	0.683	x	1.9	0.6	-0.5	x
CN(C)c1cccc(C(=O)Nc2nnc(Cc3ccccc3)s2)c1	-2.7	-5.4	14.5	-7.1	0.685	i	-8.9	-72.4	0.7	-1.5
COc1cc(-n2c(C)nc3cc(C(=O)O)ccc32)cc(OC)c1OC	5.7	-3.0	-2.3	-4.2	0.684	i	-11.9	2.7	0.1	1.5
CCC(C)[C@H](NC(=O)Nc1ccc(S(N)(=O)=O)cc1)C(=O)OC (some centres undefined)	-14.4	-4.7	-4.2	-4.4	0.682	i	-9.5	1.7	0.7	-7.0
CC1CCCN(CC(=O)Nc2ccc(S(=O)(=O)N3CCCCCC3)cc2)C1 (centres undefined)	-2.4	-3.2	3.9	1.1	0.611	x	14.0	0.6	0.1	x
COc1ccc(N2CCN(C(=O)CSc3nnc4nc(C)cc(C)n34)CC2)cc1	7.7	5.7	-3.0	-4.8	0.72	i	-0.4	-1.2	0.0	-7.7
COc1ccc(-c2onc3ccc(Cl)cc23)cc1	x	x	x	-7.6	0.704	x	-12.7	1.5	-0.4	x
Cc1nn2c3cc(N4CCOCC4)ccc3nc2c2ccccc12	x	x	x	3.1	0.724	x	20.1	2.1	-3.2	x
Cc1ccc(NC(=O)N2CCC(NC(=O)c3cccc(C)c3)CC2)cc1	-1.7	6.1	-1.9	x	0.678	i	12.7	0.5	0.7	-1.1
Cc1cccc(NC(=O)c2sccc2-n2cccc2)c1C	-33.9	-56.6	2.9	-4.2	0.706	x	3.7	-3.4	1.1	x
CCC(NC(=O)CSc1nnnn1C1CC1)c1ccc(Br)cc1 (centres undefined)	0.2	-10.3	-2.8	-5.3	0.715	i	x	3.6	-0.3	0.4
CC(=O)c1cccc(NC(=O)NC2CC(=O)N(c3ccc4c(c3)OCCO4)C2)c1 (centres undefined)	3.2	8.7	-0.9	-7.9	0.654	i	-7.4	-0.5	-0.4	7.4
CCCCCNC(=O)c1ccc2c(=O)n(CCOC)c(=O)[nH]c2c1	x	x	x	-0.1	0.669	x	-9.1	-17.4	0.2	x
Cc1ccsc1C(=O)NCCc1nnc2ccccn12	6.2	9.4	-1.1	-5.8	0.707	i	2.5	2.0	0.0	-7.7
O=C(CN1CCC(NC(=O)c2ccccc2Cl)CC1)NCc1ccco1	11.8	7.4	1.1	0.6	0.688	i	-8.4	4.1	-0.1	-0.3
Cc1ccc(S(=O)(=O)Nc2nc3ccccc3s2)cc1	x	x	x	-0.1	0.655	x	-2.8	2.2	-0.2	x
C(=N\N1CCOCC1)/c1cn(-c2ccccc2)nc1-c1ccccc1	-0.5	2.1	3.5	x	x	i	-5.3	x	0.1	20.4
CN(C)c1ccc2c(c1)OC(N)=C(C#N)C2c1cccc(F)c1 (centres undefined)	x	x	x	31.7	0.687	x	-1.7	-1.9	-0.2	x
COc1ccccc1NC(=O)c1c(N=Cc2ccccc2O)cnn1C	x	x	x	x	0.759	x	-4.9	3.1	0.8	x
COc1ccc(C(=O)SC2=NCCS2)cc1	8.1	5.3	-1.1	-3.4	0.647	i	-4.1	5.9	-0.9	-8.3
Cc1ccc(N2C(=O)N3[C@H](c4ccc(Cl)cc4)[C@@H]4C(=O)N(C5CCCCC5)C(=O)[C@@H]4[C@]3(Cc3ccccc3)C2=O)cc1	6.1	1.7	-2.8	-0.4	x	i	26.6	0.1	0.3	-0.1
